ClpP mod = qHTS Assay for Activators of ClpP. Potency, µM (titrated, usually from 57.5 µM), inactives show at the highest dose activity change, negative = active. ATP-dependent Clp protease proteolytic subunit (Bacillus subtilis (strain 168)), P80244. 340,000 compounds, 1.9% hits. AID 651965, 2013. purified B. subtilis ClpP, FRET peptide cleavage, 20 min; active = well fitted falling curve with a large enough effect; inconclusive = small, poorly fitted or top-dose-only effect; inactive = no such curve, though single readings can be large or run the other way; further: potency means the concentration at half of the fitted maximal effect; the source files actives as falling curves though it sought activators and does not explain the sign; nearly all actives have a fitted effect of over 65% in size; many hits overshoot -100%
Target sequence (P80244 whole entry, looked up): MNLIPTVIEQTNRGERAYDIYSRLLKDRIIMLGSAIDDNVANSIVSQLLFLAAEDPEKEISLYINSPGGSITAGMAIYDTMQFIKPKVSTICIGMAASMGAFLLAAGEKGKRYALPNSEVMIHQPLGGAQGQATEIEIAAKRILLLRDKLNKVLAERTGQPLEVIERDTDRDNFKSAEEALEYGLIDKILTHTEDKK
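Buffer: 100 mM Tris/HCl pH8, 100 mM KCl, 0.05% low protease BSA, 2.5% glycerol, 0.01% Tween-20. ClpP 10 microg/mL final; 20 min RT; delta FRET normalized to ADEP and DMSO controls.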
gsp ag = qHTS for Agonist of gsp, the Etiologic Mutation Responsible for Fibrous Dysplasia/McCune-Albright Syndrome: qHTS | 340,000 compounds, 0.13% hits | gsp mutant cells, cAMP HTRF, 30 min; control for the full effect not named in the record | Potency, µM (series often up to 76.9 µM), for the others: at the highest dose activation (cAMP increase), most hits filed as activators | AID 624287, 2012; active = well fitted activation curve with a large enough effect; inconclusive = small, poorly fitted or top-dose-only effect, or another doubt; inactive = no such curve, though single readings can be large or run the other way; cell line not stated here;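 further: phosphodiesterase inhibitor Ro 20-1724 added with compounds to block cAMP breakdown; potency means the concentration at half of the fitted maximal effect; nearly all actives have a fitted effect of over 60% in size; about a fifth of the inactives were tested at one dose only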
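Cells stably selected in G418 were plated at 2000/well, grown 16-24 hr, then given compounds in DMSO with the PDE inhibitor […] (300 uM solution added) for 30 min at 37C; cAMP was read by HTRF.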
Menin MLL FP FL = qHTS Assay for Inhibitors Targeting the Menin-MLL Interaction in MLL Related Leukemias: Competition With Fluorescein Labeled MLL-derived Peptide; Fluorescence polarization, fluorescein-MLL peptide displacement from menin; FP activity change, % at 61.4 µM; 290,000 tested, under 10 active; AID 1766, 2009; inconclusive = falling polarisation curve, or a change in total fluorescence; inactive = total fluorescence flat and polarisation flat or rising; no compound was filed as active; the % refers to the polarisation; negative = inhibition;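 further: % of control where 0% means no effect; inhibitors lower the polarisation; unlabelled MLL peptide was the positive control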
gsp antag = qHTS for Antagonists of gsp, the Etiologic Mutation Responsible for Fibrous Dysplasia/McCune-Albright Syndrome: qHTS; gsp-mutant cells, cAMP HTRF, 30 min; control for the full effect not named in the record; Potency, µM (titrated, usually from 76.9 µM), without a hit: at the highest dose activity change, negative = inhibition, actives largely listed as inhibitors; 340,000 compounds, 0.4% hits; AID 624288, 2012; active = falling curve of any shape with a large fitted effect; inconclusive = falling curve, mostly with a smaller effect; inactive = flat or rising curve; cell line not stated here;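 further: intracellular cAMP measured with PDE inhibitor Ro 20-1724 present during compound exposure; potency means the concentration at half of the fitted maximal effect; on the % scale 0 is the no-effect control and ±100 the full control effect; nearly all actives have a fitted effect of over 65% in size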
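Measurement of cellular cAMP by homogeneous time-resolved fluorescence following a 30 min compound exposure at 37C. The PDE inhibitor […] was present throughout; the assay buffer was DPBS with 0.05% BSA and 0.005% Tween 20.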
TRPML1 agonist = qHTS for Agonists of the Human Mucolipin Transient Receptor Potential 1 (TRPML1). Mucolipin-1 (Homo sapiens), Q9GZU1. TRPML1-expressing cells, Ca2+ dye fluorescence, FDSS; host cell line not named in the record; reference of the full effect not given here. activation, % (test concentration not listed). 410,000 compounds, 0.12% hits. AID 624414, 2012; in the data active = activation above about 50%; inconclusive = about 30% to 50%; inactive = below about 30%; further: 0% is about no effect; the text of the record puts the active cut at 80%
Target sequence (Q9GZU1 whole entry, looked up): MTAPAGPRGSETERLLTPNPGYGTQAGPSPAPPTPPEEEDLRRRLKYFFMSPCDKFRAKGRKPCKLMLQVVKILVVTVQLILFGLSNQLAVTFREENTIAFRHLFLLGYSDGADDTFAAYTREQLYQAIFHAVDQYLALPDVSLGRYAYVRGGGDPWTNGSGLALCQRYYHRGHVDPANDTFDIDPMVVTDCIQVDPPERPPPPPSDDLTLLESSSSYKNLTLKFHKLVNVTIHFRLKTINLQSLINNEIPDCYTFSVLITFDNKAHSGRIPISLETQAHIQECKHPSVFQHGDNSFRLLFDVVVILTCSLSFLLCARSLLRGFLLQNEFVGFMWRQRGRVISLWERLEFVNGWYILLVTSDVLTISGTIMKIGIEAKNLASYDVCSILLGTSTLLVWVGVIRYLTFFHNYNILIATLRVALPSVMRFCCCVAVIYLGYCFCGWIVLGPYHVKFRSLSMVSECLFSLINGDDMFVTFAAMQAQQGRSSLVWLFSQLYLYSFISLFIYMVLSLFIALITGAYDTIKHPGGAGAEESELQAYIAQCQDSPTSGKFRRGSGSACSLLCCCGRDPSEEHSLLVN
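Agonist activity was taken from a 110 s kinetic Ca2+ dye read on the FDSS after pinning compounds onto TRPML1-DL cells. The cells were seeded at 1,500/well with Tet inducer, incubated about 16 h, then dye-loaded at room temperature.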
TRPML1 inh = qHTS for Inhibitors of the Human Mucolipin Transient Receptor Potential 1 (TRPML1); TRPML1-inducible cells, Ca2+ dye fluorescence, FDSS; active compounds read low; inhibition of EC80 agonist-evoked calcium signal; activity change, negative = inhibition, % (concentration not given with the values); 390,000 compounds, 0.02% hits; AID 624415, 2012; in the data active means activity change below about -50%; inconclusive means about -30% to -50%; inactive means above about -30%;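 further: stimulus is agonist 54-4 at its EC80 concentration; on the % scale 0 is the no-effect control and ±100 the full control effect; the text of the record puts the active cut at -80%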
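TRPML1-DL cells, Tet-induced overnight (~16 h, 37 °C) at 1,500 cells/well, were loaded with Ca8 no-wash dye plus quencher for 45-90 min at room temperature. Compounds were pinned during FDSS kinetic reading; agonist 54-4 at EC80 (4 uM final) then added.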
* marks the source's active call; other numbers are inactive results; ? = inconclusive; · = not tested or not shown; & = joins results of further samples; [ ] = remark or other dose. Compounds were not picked by outcome. About 2.1% of those tested had a hit in this group.

SMILES | ClpP mod | gsp ag | Menin MLL FP FL | gsp antag | TRPML1 agonist | TRPML1 inh
O=C(NCC1CCCO1)C1CCCN(S(=O)(=O)c2cccc(C(F)(F)F)c2)C1 (stereo unspecified) | · | ? | 7.1 | 0% | 1.0 | 4
COCOCCn1cc(CN2CCS(=O)(=O)N(Cc3ccc(-c4ccc(Cl)cc4)cc3)C(C(C)C)C2=O)nn1 (stereo unspecified) | 1.3% | -94% | · | · | -0.5 | -1
CCc1nc2nc(C)c(NS(=O)(=O)c3ccc(C4CCCCC4)cc3)c(=O)n2[nH]1 | · | -25% | -0.5 | 2% | 1.5 | -6
CCOc1ccc(S(=O)(=O)NCc2nc3cccnc3n2Cc2ccccc2OC)cc1 | -5.5% | · | · | · | 1.0 | 12
CSc1sc(-c2ccnc(SCCS(C)(=O)=O)n2)c(-c2ccccc2)c1C#N | · | 21% | -0.8 | ? | 1.1 | 29
C/C(=N/NC(=O)CNC(=O)c1ccccc1)c1ccc(C)cc1 | · | 5%[15.4 µM] | -4.9 | 1% | 2.2 | 2
COc1ccc(CCNc2nccn(-c3ccc(C)c(C)c3)c2=O)cc1OC | -9.8% | · | · | · | 1.9 | 7
COc1cccc(OCC(=O)NNC(=O)c2cnccn2)c1 | -1.0% | -7% | 0.5 | 4% | 0.3 | 0
O=C(O)c1cc(O)c2c(c1)C(=O)c1cc(O)cc(O)c1C2=O | -1.2% | · | -0.9&-0.9 | -15% | · | ·
CC(=O)c1cccc(NC(=O)CSc2nnc3ccc(-c4ccc(F)cc4)nn23)c1 | -1.4% | · | · | · | 0.6 | 19
O=C(COc1ccc(Cl)cc1)Nc1nc(-c2ccc(S(=O)(=O)N3CCOCC3)cc2)cs1 | -4.1% | ? | 3.4 | -14% | -0.2 | 16
COC(=O)c1ccccc1NC(=O)c1noc2c1CSc1ccccc1-2 | -2.6% | · | · | · | 0.7 | 32
O=C(COC(=O)CSc1ccc([N+](=O)[O-])cc1)NCC1CCCO1 (stereo unspecified) | -1.5% | 26% | · | -14% | 0.2 | -3
COC(=O)c1c(C)oc2ccc(N(C(=O)c3ccncc3)S(=O)(=O)c3ccc(Br)cc3)cc12 | -2.5% | · | · | · | 0.7 | 5
CC(=Nc1ccccc1)c1sc2ccccc2c1O | ? | ? | ? | ? | 13 | -12
O=C(Nc1cccc2cccnc12)C1CCCC1 | ? | 13%[15.4 µM] | 1.4 | 6% | 0.4 | 7
COC(=O)[C@@]1(Cc2ccccc2)[C@H]2C(=O)N(C)C(=O)[C@H]2[C@H]2CN=C(SCC3CC3)N21 | 2.0% | · | · | 12% | 0.8 | ?
O=C(Cn1cc(S(=O)(=O)N2CCN(c3ccccc3F)CC2)c2ccccc2c1=O)Nc1ccc(F)cc1Cl | -27% | · | · | · | 0.9 | -7
Cn1c(SCC(=O)Nc2ccc(Cl)cc2)nc(O)cc1=O | · | -2%[15.4 µM] | 2.1 | 6% | 1.1 | -14
COc1ccc(CCNC(=O)c2cc(Sc3cccc(Cl)c3)nc3ccccc23)cc1OC | -16% | · | · | · | 2.8 | 2
CC12CN3CC(C)(CN(C1)C3c1ccc(Br)cc1)C2=O (stereo unspecified) | -0.6% | -17% | 4.5 | 1% | 0.2 | 42
NC(=O)C1CCN(C(=O)c2ccccc2NC(=O)c2nsc3ccccc23)CC1 | 0.6% | · | · | · | 1.5 | ?
O=C(Nc1cccc(S(=O)(=O)NC2=NCCCCC2)c1)c1cc(-c2ccc(Cl)cc2)nc2ccccc12 | -1.2% | 18%[15.4 µM] | 3.1 | -20% | 0.1 | -4
Cn1c(=O)c2c(ncn2CC(=O)N2CCN(c3cccc(Cl)c3)CC2)n(C)c1=O | -0.1% | -6% | 0.2 | -3% | -0.1 | 7
O=C(N/N=C/c1ccc(Br)o1)c1cc([N+](=O)[O-])cc([N+](=O)[O-])c1 | -2.2% | 1% | 3.5 | -1% | 1.4 | 10
c1ccc(Nc2nc(NCCN3CCOCC3)nc(Nc3ccccc3)n2)cc1 | 1.5% | -7%[15.4 µM] | -1.4 | -3% | -0.6 | 8
CC(=O)NS(=O)(=O)c1ccc(NC(=O)C2C3C=CC(C3)C2C(=O)O)cc1 (stereo unspecified) | 1.0% | -1% | 2.1 | 15% | -0.3 | -6
O=C(COC(=O)CNS(=O)(=O)c1c(F)cccc1F)NC(=O)NC1CCCCC1 | 1.1% | -16% | · | -6% | 1.2 | 6
O=C(c1ccc(Cl)c([N+](=O)[O-])c1)N1CCN(C(=O)c2ccco2)CC1 | -1.6% | 7% | -6.2 | -4% | 0.5 | -20
CCOC(=O)N1CCC(Nc2nc(OC)nc(OC)n2)CC1 | 1.6% | -59%[inhibitor] | 1.6 | 8% | -1.0 | -6
CCCCn1ccnc1C(=O)c1cccc(S(=O)(=O)N2c3ccccc3CC2C)c1 (stereo unspecified) | -0.4% | -41%[inhibitor] | 0.4 | -17% | 0.6 | 2
COc1ccc(C)cc1NC(=O)C(OC(=O)CNC(=O)c1ccc(Oc2ccccc2)cc1)c1ccccc1 (stereo unspecified) | -2.8% | -20% | 2.5 | 0% | 1.7 | -3
CCn1c(=O)c2c3c(sc2n2c(SCc4ccc(F)cc4)nnc12)CCCC3 | · | 4%[15.4 µM] | · | -4% | 1.1 | 23
CC(C)(C)CNC(=O)C1(C)CCN1C(=O)Cc1ccc(C(C)(C)C)cc1 (stereo unspecified) | -3.0% | · | · | · | -0.6 | -8
O=C(CCCSc1nc(-c2ccco2)cc(C(F)(F)F)n1)NCc1cccs1 | -1.6% | 1% | 5.1 | -19%[15.4 µM] | 2.3 | 13
CC(C)(C)C(=O)N1CCC(O)(CS(=O)(=O)Cc2ccccc2Cl)CC1 | -3.3% | 18% | -3.2 | 6% | 0.0 | 9
Cc1cccc(-c2noc(CN(C(=O)/C=C/c3ccccc3Cl)C(C)C)n2)c1 | -1.8% | ? | 3.4 | ? | 0.9 | 9
COc1ccc(NC(C)c2cc(Cl)ccc2O)cc1 (stereo unspecified) | 3.2µM* | ? | 6.7 | 3% | 0.4 | 16
CCN1CCN(C(c2cccnc2)c2cc(Cl)c3cccnc3c2O)CC1 (stereo unspecified) | -1.1% | -6% | 2.1 | 4% | -0.2 | -4
O=C(NCC1(c2ccccc2)CCCC1)C1(c2ccccc2)CCCC1 | -3.4% | 10% | 1.8 | -18% | 13 | 12
CC(C)(C)c1ccc(C2CC2C(=O)N/N=C\c2ccc[nH]2)cc1 (stereo unspecified) | · | -54%[inhibitor] | -0.2 | -11% | 3.9 | -11
Cc1ccccc1OCC(=O)NNC(=O)Cc1ccc(S(=O)(=O)N2CCOCC2)s1 | 1.2% | -4% | · | 5% | 0.8 | 14
C=CCOc1nc(N2CCCC2)nc(N2CCCC2)n1 | -0.8% | -44%[inhibitor] | 2.6 | -5% | 1.3 | 5
C=CCN(CC=C)c1ccc(N2C(=O)C3CCCCC3C2=O)cc1[N+](=O)[O-] (stereo unspecified) | · | 23% | 5.4 | -17% | -0.7 | 25
COC1CCN(C(=O)c2ccc3oc(C(C)C)nc3c2)CC1 | · | 19% | -2.7 | 9% | -0.3 | -22
COC(=O)c1ccc2c(=O)n(CCN3CCOCC3)c(SCC(=O)NCc3ccccc3)nc2c1 | · | 25% | -2.7 | -11% | -0.2 | 1
CCCCn1c(N)c(N(CCOC)C(=O)c2cc3c(s2)CCC(C)C3)c(=O)[nH]c1=O (stereo unspecified) | · | -4%[15.4 µM] | · | 9% | -0.7 | 5
CN1CCN(c2ccc(NC(=O)COc3ccccc3[N+](=O)[O-])cc2)CC1 | · | -1%[15.4 µM] | -2.1 | · | -0.3 | 14
Cc1cc(Cl)ccc1NC(=O)CCN1C(=O)C2CCCCC2C1=O (stereo unspecified) | -0.2% | -27% | · | 12% | -0.2 | 7
Nc1ncc(CCN2CCOCC2)c(-c2ccc(F)cc2)n1 | · | -4% | -4.7 | -4% | -0.6 | 17
Remaining list, next part:
SMILES | ClpP mod | gsp ag | Menin MLL FP FL | gsp antag | TRPML1 agonist | TRPML1 inh
CCN(CCCNC(=O)CC(C(=O)N1CCc2ccccc21)n1ccnc1)c1cccc(C)c1 (stereo unspecified) | -0.1% | 6% | -0.8 | ? | 2.8 | 0
CCOC(=O)CNC(=S)N(CCCN1CCCC1)Cc1cccs1 | · | -24% | 5.4 | 2% | -0.8 | -8
Cc1cc(C)cc(N(CC(=O)Nc2ccccc2-c2ccccc2)S(=O)(=O)c2ccccc2)c1 | -2.0% | -7% | 2.4 | 21% | -0.7 | 4
Cc1ccc(Cn2nnc3c(=O)[nH]c(C4CCN(S(=O)(=O)c5ccc(S(=O)(=O)NC6CC6)cc5)CC4)nc32)cc1 | · | -4%[15.4 µM] | 3.3 | 0% | 0.5 | -5
CC(C)C(NC(=O)c1ccccc1)C(=O)N1CCN(C/C=C/c2ccccc2)CC1 (stereo unspecified) | 0.0% | 0% | · | 2% | -0.4 | -6
CCOC(=O)CSCc1cn2cc(Cl)ccc2n1 | -11% | -22% | 1.3 | -4% | -0.3 | 8
COCCN(C(=O)COC(=O)c1cnc(C)cn1)c1c(N)n(Cc2ccccc2)c(=O)[nH]c1=O | · | -5%[15.4 µM] | · | -5% | 0.5 | 25
O=[n+]1c2c(n([O-])c3cc(F)c(F)cc31)CCCC2 | -5.0% | 10% | -8.4 | 1% | 0.4 | 12
CN(c1ccccc1)S(=O)(=O)c1cccc(C(=O)Nc2nccs2)c1 | -4.5% | -5% | 0.1 | -1% | -0.2 | -20

Part of the list above, set out differently:
| SMILES | ClpP mod | gsp ag | Menin MLL FP FL | gsp antag | TRPML1 agonist | TRPML1 inh |
| --- | --- | --- | --- | --- | --- | --- |
| COCCN(C(=O)COC(=O)c1cnc(C)cn1)c1c(N)n(Cc2ccccc2)c(=O)[nH]c1=O | · | -5%[15.4 µM] | · | -5% | 0.5 | 25 |
| O=[n+]1c2c(n([O-])c3cc(F)c(F)cc31)CCCC2 | -5.0% | 10% | -8.4 | 1% | 0.4 | 12 |
| CN(c1ccccc1)S(=O)(=O)c1cccc(C(=O)Nc2nccs2)c1 | -4.5% | -5% | 0.1 | -1% | -0.2 | -20 |

Source: PubChem BioAssay
